Assay outcomes from PubChem BioAssay.
NPYLR7 ag = agonists of mosquito NPYLR7 receptor, primary screen, cell-based, Aedes aegypti, calcium fluorescence, mosquito biting behavior; activation, % at 10 µM; actives 0.15% (n = 270,000); HEK293T NPYLR7/Galpha15, GCaMP6s calcium fluorescence; in the data active = activation above about 40%;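 note: 0% = vehicle and 100% = reference agonist at the receptor; some compounds past the cut are filed as inactive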
NPYLR7 ag max-min = second read-out of NPYLR7 ag, no call of its own (marks repeat the call); activation, %; measured here: Max-Min RFU normalised activation; some inactives read as strong as hits;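 span of the calcium signal over five minutes; 0% = vehicle and 100% = native peptide agonist; compound fluorescence can raise it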
* hit, by the source's call; & = joins results of further samples. Only part of the results is shown; rates above refer to the full screens.

A first look (five entries):
O=C1CCCCCC1Sc1nnc(COc2ccccc2Cl)o1 (stereo not given) was read as NPYLR7 ag 3 and NPYLR7 ag max-min -15.
Screening Cc1cc(C)cc(-n2nc3c(c2N)CSC3)c1 returned NPYLR7 ag 0 and NPYLR7 ag max-min -3.
Cc1ccc(S(=O)(=O)N2CCC3(CCCN(Cc4cccnc4)C3=O)C2)cc1 (stereo not given) was read as NPYLR7 ag 6 and NPYLR7 ag max-min 5.
CCN(CCn1cccn1)C(=O)c1ccc(Cl)s1 was read as NPYLR7 ag 2 and NPYLR7 ag max-min -1.
COc1ccc(CNC(=O)CCc2cc3c(n2-c2cc(OC)cc(OC)c2)-c2ccccc2CC3)cc1 was read as NPYLR7 ag 1 and NPYLR7 ag max-min -2.

Results, previewed entries included:
O=C1CCCCCC1Sc1nnc(COc2ccccc2Cl)o1 (stereo not given) was read as NPYLR7 ag 3 and NPYLR7 ag max-min -15.
Screening Cc1cc(C)cc(-n2nc3c(c2N)CSC3)c1 returned NPYLR7 ag 0 and NPYLR7 ag max-min -3.
Cc1ccc(S(=O)(=O)N2CCC3(CCCN(Cc4cccnc4)C3=O)C2)cc1 (stereo not given) was read as NPYLR7 ag 6 and NPYLR7 ag max-min 5.
CCN(CCn1cccn1)C(=O)c1ccc(Cl)s1 was read as NPYLR7 ag 2 and NPYLR7 ag max-min -1.
COc1ccc(CNC(=O)CCc2cc3c(n2-c2cc(OC)cc(OC)c2)-c2ccccc2CC3)cc1 was read as NPYLR7 ag 1 and NPYLR7 ag max-min -2.
`Cc1ccc(-n2cc(-c3ccccc3)c3c(NCCCN4CCCC4=O)ncnc32)cc1Cl` gave NPYLR7 ag -1 and NPYLR7 ag max-min -1.
Screening CC1(C)O[C@@H]2C[C@@](OCc3cccc(C(F)(F)F)c3)(C(=O)NCCCn3ccnc3)CC(OCc3ccccc3C#N)[C@@H]2O1 (stereo not given in full) returned NPYLR7 ag 9 and NPYLR7 ag max-min 18.
`CCC(C(=O)N1CCN(C(C(=O)N2CCC(C)CC2)C2CCCC2)CC1)c1ccccc1` (stereo not given) gave NPYLR7 ag -3 and NPYLR7 ag max-min 17.
Cc1cc(C(=O)N2CCC(N3CCC(C(=O)NCCc4ccccc4)CC3)CC2)n(C)n1 was read as NPYLR7 ag 5&12 and NPYLR7 ag max-min 6&3.
Cc1cccc(-c2noc(N3CCOCC3)c2CN(CC2CCCO2)C(=O)c2cccc(F)c2)c1 (stereo not given) was read as NPYLR7 ag 4 and NPYLR7 ag max-min 12.
CC(=O)Nc1cccc2nc(CN3CCCC(C(=O)c4cccc5ccccc45)C3)ccc12 (stereo not given) was read as NPYLR7 ag 3 and NPYLR7 ag max-min -10.
For O=C(CSc1nnc(-c2ccc(Cl)cc2)n1-c1ccccc1)N/N=C\c1ccccc1Br the results were NPYLR7 ag -6 and NPYLR7 ag max-min -9.
For Cc1cccc(CCNC(=O)CCc2nnc(CCc3ccccc3)o2)n1 the results were NPYLR7 ag 0 and NPYLR7 ag max-min -3.
`CCOc1cc(N2CCOCC2)c(OCC)cc1NS(=O)(=O)c1c(C)noc1C` gave NPYLR7 ag 5 and NPYLR7 ag max-min 11.
For COc1ccc(OC)c(/C=c2/sc3nc(-c4ccc(C)cc4)nn3c2=O)c1 the results were NPYLR7 ag -14 and NPYLR7 ag max-min -20.
CC(C(N)=O)N1CCN(Cc2ccc(Cl)s2)CC1 (stereo not given) was read as NPYLR7 ag -2 and NPYLR7 ag max-min -3.
Cc1nc(C)n(C(C)CNC(=O)c2cccs2)n1 (stereo not given) was read as NPYLR7 ag 7 and NPYLR7 ag max-min 8.
For COc1ccc(CN2C(=O)C(O)(CC(C)=O)c3cccc(C)c32)cc1OC (stereo not given) the results were NPYLR7 ag 0 and NPYLR7 ag max-min 6.
`CN1CCC(N2C[C@@H](O)[C@H]3C[C@@H]2Cc2c3[nH]c3ccccc23)CC1` gave NPYLR7 ag 26 and NPYLR7 ag max-min 32.
For Cc1noc(C)c1CS(=O)(=O)c1n[nH]c(C(C)C)n1 the results were NPYLR7 ag 8 and NPYLR7 ag max-min -1.

Structures from the list above containing an aryl thioether with sulfur outside any ring, in the order listed:
O=C1CCCCCC1Sc1nnc(COc2ccccc2Cl)o1 (stereo not given) was read as NPYLR7 ag 3 and NPYLR7 ag max-min -15.
For O=C(CSc1nnc(-c2ccc(Cl)cc2)n1-c1ccccc1)N/N=C\c1ccccc1Br the results were NPYLR7 ag -6 and NPYLR7 ag max-min -9.

Remaining list, next part
For CCOC(=O)CN1C(=O)CN(S(=O)(=O)Cc2ccccc2)CCC(OC)c2ccccc21 (stereo not given) the results were NPYLR7 ag 0 and NPYLR7 ag max-min 3.
For CC(C)=CCN1CCNC(=O)C1CC(=O)N(C)C1CC(C)(C)NC(C)(C)C1 (stereo not given) the results were NPYLR7 ag 4 and NPYLR7 ag max-min 1.
Screening CCOC(=O)CSc1nc2c([nH]c3ccccc32)c(=O)n1-c1ccc(OC)cc1 returned NPYLR7 ag 0 and NPYLR7 ag max-min 25.
Screening O=C(O)c1ccccc1C1CCN(c2ncnc3c2CCC3)C1 (stereo not given) returned NPYLR7 ag 3 and NPYLR7 ag max-min -8.
Screening O=C1CC2(CCN(C(=O)c3ccccc3C(=O)N3CCC4(CC3)CC(=O)c3cc(F)ccc3O4)CC2)Oc2ccc(F)cc21 returned NPYLR7 ag -12 and NPYLR7 ag max-min -19.
`CCc1cc2c(SCc3cc(=O)n4ccsc4n3)ncnc2s1` gave NPYLR7 ag 7 and NPYLR7 ag max-min 0.
`CCCCn1nnnc1NC(=O)N1CCC(CC)(CC)C1` gave NPYLR7 ag -2&-5 and NPYLR7 ag max-min -4&-9.
NC(=O)CSc1nc2c(c(=O)n1-c1ccc([N+](=O)[O-])cc1)SCC2 was read as NPYLR7 ag 1 and NPYLR7 ag max-min 30.
For CC(C)Cc1cc(C(=O)N2CCCC2c2nc(-c3ccccc3)no2)no1 (stereo not given) the results were NPYLR7 ag 2 and NPYLR7 ag max-min -9.
Screening O=S(=O)(c1ccc(Cl)cc1)N(c1ccc(F)cc1)C(F)F returned NPYLR7 ag 12 and NPYLR7 ag max-min 7.
Screening N#CCCN(CCC(F)(F)F)C(=O)c1c(O)cc(F)cc1F returned NPYLR7 ag 4 and NPYLR7 ag max-min 0.
For O=C(Nc1ccc2c(c1)OCCCO2)[C@@H]1CCCN1C(=O)c1ccco1 the results were NPYLR7 ag -17 and NPYLR7 ag max-min -19.
`O=C1CC2(CCCC2)C(=O)N1Cc1nc(-c2ccsc2)no1` gave NPYLR7 ag 9 and NPYLR7 ag max-min 12.
Screening Cc1ccccc1C(=O)Nc1ccnn1C1CCN(C(=O)c2ccsc2)CC1 returned NPYLR7 ag -4 and NPYLR7 ag max-min -8.
`CC(=O)Nc1cccc(C(=O)N2CCOC(Cc3ccc(F)cc3)C2)c1` (stereo not given) gave NPYLR7 ag 8 and NPYLR7 ag max-min 2.
CCSc1nc(CC(=O)NCCc2nc3ccccc3c(=O)[nH]2)cs1 was read as NPYLR7 ag 26 and NPYLR7 ag max-min 10.
For COc1cccc(CC(C2CCN(C(=O)CC3CCCCC3)CC2)N(C)C(=O)c2ccn(C)n2)c1 (stereo not given) the results were NPYLR7 ag 12 and NPYLR7 ag max-min 3.
CCS(=O)(=O)c1ccccc1N1CCC(N)CC1 was read as NPYLR7 ag 1 and NPYLR7 ag max-min -3.
Screening CCOc1ccc(CN(C)CC(=O)N2c3ccccc3NC(=O)C23CCCC3)cc1OC returned NPYLR7 ag -1 and NPYLR7 ag max-min -1.
`O=C(c1ccc(OC2CCN(Cc3ccccn3)CC2)cc1)N(CC1CC1)CC1CCCO1` (stereo not given) gave NPYLR7 ag -1 and NPYLR7 ag max-min -2.
Screening CCCCNC(=O)N1CCN(c2cc(Cl)nc(SCC(=O)NOCC)n2)CC1C (stereo not given) returned NPYLR7 ag 1 and NPYLR7 ag max-min 13.
Screening N#CC1C(=S)N=C(N)C(c2nc(-c3ccccc3)cs2)C12CCCC2 (stereo not given) returned NPYLR7 ag 2 and NPYLR7 ag max-min 6.
Screening O=C(CCNC(=O)c1ccccc1Br)NN=Cc1ccco1 returned NPYLR7 ag 4 and NPYLR7 ag max-min -1.
CCOc1ncccc1-c1nc2ccccc2s1 was read as NPYLR7 ag 20 and NPYLR7 ag max-min 14.
For O=C(c1ccc(CSCc2ccc(Cl)c(Cl)c2)cc1)N1C2CCC1CC(Oc1ccc(F)cc1F)C2 (stereo not given) the results were NPYLR7 ag 10 and NPYLR7 ag max-min -3.
CCN(Cc1ccncc1)C1CCCN(Cc2nccn2-c2ccc(OC)cc2)C1 (stereo not given) was read as NPYLR7 ag 4 and NPYLR7 ag max-min 3.
COc1ccc(/C=C2\C=C(c3ccccc3)N(c3ccc(C)cc3Br)C2=O)cc1 was read as NPYLR7 ag 0 and NPYLR7 ag max-min 7.
For COc1cc2c(cc1OC)C(C(C)NC(=O)c1ccco1)N(Cc1ccccc1F)CC2 (stereo not given) the results were NPYLR7 ag -3 and NPYLR7 ag max-min 9.
`O=C1NC2(CCCCCC2)C(=O)N1CC(=O)N1CCCC1c1ccc2c(c1)OCCCO2` (stereo not given) gave NPYLR7 ag 0 and NPYLR7 ag max-min -1.
For COc1ccc(NC(=O)C2CCN(C(=O)[C@H](C)NC(=O)Nc3c(F)cc(Br)cc3Br)CC2)cc1 the results were NPYLR7 ag 2 and NPYLR7 ag max-min -2.
Screening CC1(C(=O)O)CCN1C(=O)c1cccnc1Oc1ccccc1 (stereo not given) returned NPYLR7 ag -3 and NPYLR7 ag max-min -6.
Screening CCOC(=O)C1C(=N)Oc2cc(C)n(Cc3ccccn3)c(=O)c2C1c1cccnc1 (stereo not given) returned NPYLR7 ag -5 and NPYLR7 ag max-min 0.
Screening C=CCN1C(=S)N(c2ccccc2)C2CS(=O)(=O)CC21 (stereo not given) returned NPYLR7 ag -10 and NPYLR7 ag max-min -7.
Cc1nc(CN2CCCC(NCC(=O)NC3(C#N)CCCC3)C2)no1 (stereo not given) was read as NPYLR7 ag 2 and NPYLR7 ag max-min 2.
Screening Cc1ccc(CN2CCC3(CCNCC3)C2)c(Cl)c1Cl returned NPYLR7 ag 17 and NPYLR7 ag max-min 16.
`Cc1ccccc1-n1cnnc1Cn1nc(C)c(C)c1C` gave NPYLR7 ag 0 and NPYLR7 ag max-min -8.
`O=C(CCc1c[nH]c2ccccc12)N1CCOC(c2ccccc2)C1` (stereo not given) gave NPYLR7 ag 21 and NPYLR7 ag max-min 23.
Screening O=C(c1cc(-c2ccccc2Cl)nc2cc(-c3ccccc3)nn12)N1CCN(C/C=C/c2ccccc2)CC1 returned NPYLR7 ag 16 and NPYLR7 ag max-min 26.
Cc1ccc(N2C(=O)c3cccc4c(N(C)C)ccc(c34)C2=O)cc1 was read as NPYLR7 ag 1 and NPYLR7 ag max-min -15.
Screening CCCN(CC(=O)N1CC(=O)N(c2cccc(Cl)c2)C1)C(=O)c1ccccc1OC returned NPYLR7 ag -15 and NPYLR7 ag max-min -8.
For CCc1nc2ccc(C(=O)NC3CCN(C)CC3)cn2c1N(C)Cc1ccc(OC)cc1 the results were NPYLR7 ag -4 and NPYLR7 ag max-min -6.
COc1ncc(CN2CCc3ccc(NC(=O)c4ccccn4)cc3C2)cn1 was read as NPYLR7 ag -5 and NPYLR7 ag max-min -5.
For CC(C1CC1)N(C(=O)CN(C)C1CCS(=O)(=O)CC1)C1CC1 (stereo not given) the results were NPYLR7 ag 1 and NPYLR7 ag max-min 2.
`Nc1cccc(N=Cc2nc(-c3ccc(Br)cc3)oc2O)n1` gave NPYLR7 ag 1 and NPYLR7 ag max-min 2.
CC(C)CN(CC(C)C)C(=O)Cn1cc([N+](=O)[O-])ccc1=O was read as NPYLR7 ag 3 and NPYLR7 ag max-min 1.
For COc1ccc(-c2ccccc2)cc1-n1ccnc1-c1cnc[nH]1 the results were NPYLR7 ag 10 and NPYLR7 ag max-min 7.
O=C(CNC1(c2ccc(Br)cc2)CCOCC1)Nc1ccccc1C(F)(F)F was read as NPYLR7 ag -4 and NPYLR7 ag max-min -3.
For COc1ccc(-c2cc(C(F)(F)F)nc(-n3cc(Br)cn3)n2)cc1 the results were NPYLR7 ag 13 and NPYLR7 ag max-min 4.
Screening O=C(c1ccccc1)N1CCCC(CCc2c(F)cccc2F)C1 (stereo not given) returned NPYLR7 ag 4 and NPYLR7 ag max-min 1.
Screening CCN(CC)CCN(C(=O)c1ccccc1Cl)c1nc2cc3c(cc2s1)OCO3 returned NPYLR7 ag -2 and NPYLR7 ag max-min -6.
Screening Cc1nc(CCNC(=O)N2CC(C)OCC2c2ccccc2)cs1 (stereo not given) returned NPYLR7 ag 6 and NPYLR7 ag max-min 5.
`O=C(CSc1nc2ccccc2[nH]1)N/N=C\c1cccc(O)c1` gave NPYLR7 ag 1 and NPYLR7 ag max-min 7.
Cc1c(C(=O)Nc2ccc(-n3cnnn3)cc2)oc2ccccc12 was read as NPYLR7 ag 5 and NPYLR7 ag max-min 0.
For Cc1csc(CC(O)(c2nccn2C)C(F)(F)F)n1 (stereo not given) the results were NPYLR7 ag 10 and NPYLR7 ag max-min 5.
For CN(Cc1cc2n(n1)CCNC2)Cc1cc(-c2ccccc2)n[nH]1 the results were NPYLR7 ag 7 and NPYLR7 ag max-min 5.
`Cn1c(=NN=Cc2ccccn2)sc2ccccc21` gave NPYLR7 ag 4 and NPYLR7 ag max-min 2.
CC(C(=O)N(C)C)N(C)Cc1cnc(-c2cccc3ccccc23)nc1 (stereo not given) was read as NPYLR7 ag -6 and NPYLR7 ag max-min -7.
`Cc1c(C(=O)N2CCC(N3CCCC3)CC2)c(=O)[nH]c2ccccc12` gave NPYLR7 ag 7 and NPYLR7 ag max-min 7.
`O=C(C1CCCN(C2CCCCC2)C1)N1CCN(C2CCOCC2)CC1` (stereo not given) gave NPYLR7 ag 15 and NPYLR7 ag max-min 10.
